HPGD inh: inhibitors of human 15-hydroxyprostaglandin dehydrogenase (HPGD). P15428. 150,000 tested, 4.3% active. purified HPGD, NADH fluorescence kinetic, PGE2 substrate. Potency, µM, for the others: at the highest dose activity change, negative = inhibition, usual class: inhibitors; active = well fitted inhibition curve with a large enough effect (not every such curve was filed as active); inconclusive = small, poorly fitted or top-dose-only effect, or another doubt; inactive = no such curve, though single readings can be large or run the other way;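 further: top concentration of the series not given in the record; plate controls included wells without enzyme; inactives centre near -10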
Target sequence (P15428 whole entry, looked up): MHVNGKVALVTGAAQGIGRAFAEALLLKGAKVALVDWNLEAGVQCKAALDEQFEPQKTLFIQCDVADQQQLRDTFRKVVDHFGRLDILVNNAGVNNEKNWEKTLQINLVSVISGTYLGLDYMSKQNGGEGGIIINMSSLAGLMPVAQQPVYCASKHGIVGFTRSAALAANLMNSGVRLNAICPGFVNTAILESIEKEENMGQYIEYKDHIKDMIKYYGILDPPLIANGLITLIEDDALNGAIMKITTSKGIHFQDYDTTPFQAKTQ
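20 nM HPGD preincubated 15 min at room temperature with compound in 50 mM Tris-HCl pH 8, 0.01% Tween 20. Started with 1 mM NAD+ and 30 uM prostaglandin E2; NADH fluorescence (360/450 nm) read 5 times over 30-s intervals, last minus first.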
An asterisk follows results filed as active; ? = inconclusive; & = joins results of further samples. On the % scale 0 is the no-effect control and ±100 the full control effect; potency means the concentration at half of the fitted maximal effect. Only part of the results is shown; rates above refer to the full screens.

SMILES	HPGD inh
COCc1nnc(NC(=O)c2cccs2)s1	-17.0%
O=C(O)CCSc1nc2ccccc2s1	?
COc1cccc(C2=N/C(=C\N(C)C)C(=O)O2)c1	?
CC(NC(=O)c1nn(C)c(=O)c2ccccc12)c1ccc(F)cc1 (centres undefined)	-7.5%
CCN(CC)CCN1C(=O)C(=O)/C(=C(/O)c2ccc(OCC(C)C)cc2)C1c1ccncc1 (centres undefined)	-8.6%
N#C/C(=C\c1ccc(/C=C(/C#N)c2nn(CCO)c(N)c2C#N)cc1)c1nn(CCO)c(N)c1C#N	-29.4%
CC(C)(C)NC(=O)C(c1ccncc1)N(C(=O)c1csnn1)C1CC1 (centres undefined)	-5.5%
CCC(=O)N(CCc1ccccc1C)Cc1cc2cc3c(cc2[nH]c1=O)OCO3	?
N#Cc1c(-c2ccc(Br)cc2)nc2n(c1=O)CCCS2	28.2µM*
COc1cc2nc(N3CCN(C(=O)C4CCCO4)CC3)nc(N)c2cc1OC (centres undefined)	?
Cc1ccc(C(=O)N/C(=C/c2ccc(Cl)cc2)C(=O)Nc2cccc(C(=O)O)c2)cc1	-13.1%
CCNC(=O)N(C)c1nncnc1C(=O)NC	-1.2%
Cc1ccc(S(=O)(=O)C2CCOC2=O)cc1 (centres undefined)	-17.1%
Cc1ccc(C2CC(=O)N3CN(c4ccc(Br)cc4)CSC3=C2C#N)o1 (centres undefined)	?
O=C(CN1CCC(n2nnc3cc(C(F)(F)F)ccc32)CC1)Nc1ccc2c(c1)OCCO2	-11.7%
Cc1ncc(S(=O)(=O)c2ccccc2)c(-c2ccc(Cl)cc2Cl)n1	-8.7%
Cc1ccccc1NC(=O)C1CC(Cl)=CCC1C(=O)O (centres undefined)	-14.6%
COC(=O)C1(C)C=CC2(CCCCC2)N1C(=O)c1ccccc1 (centres undefined)	-8.7%
COc1ccc(NC(=O)CSc2ncccc2C(=O)OC(C)C)cc1OC	-14.1%
O=C(Cc1cccs1)N/N=C/C(Br)=C/c1ccccc1	-13.1%
CN([C@@H](Cc1ccc(OS(=O)(=O)c2cccc3cnccc23)cc1)C(=O)N1CCN(c2ccccc2)CC1)S(=O)(=O)c1cccc2cnccc12	-6.9%&-5.4%
COc1ccccc1N1CCN(C(=O)c2ccc(Cl)c(S(=O)(=O)NCc3ccco3)c2)CC1	0.1%
CCn1c(=O)c(NC(=O)c2ccccc2)c2n(c1=S)CCCCC2	-11.0%
Cc1ccc(S(=O)(=O)c2c(N)n(NC(=O)c3ccccc3C)c3nc4ccccc4nc23)cc1	?
CCCCOc1ccc(-c2nnn(CC(=O)Nc3ncc(CC(=O)OCC)s3)n2)cc1	-14.9%
CCCCNC(=O)COC(=O)c1cc(S(=O)(=O)N2CCCCCC2)ccc1OC	2.5%
Cc1ccc2nc(-c3ccc(N)cc3)sc2c1S(=O)(=O)O	?
Oc1ccccc1-c1nc(NCCN2CCOCC2)c2ccccc2n1	-10.6%
CCOC(=O)c1ccc(NC(=O)CC2S/C(=N/N=C/c3c[nH]c4ccccc34)NC2=O)cc1 (centres undefined)	?
CC(C)(C)NC(=O)c1cccc(NC(=O)CSc2ccc(Cl)cc2)c1	-5.5%
Cn1c(SCCS(=O)(=O)c2ccc(Cl)cc2)nnc1-c1ccccc1	-9.1%
COc1ccc(Oc2nccc(OC)c2C#N)cc1	-4.0%
CCOc1cc(/C=C2\SC(=Nc3ccccc3)N(c3ccccc3)C2=O)ccc1OCC(=O)O	-5.3%
CCOC(=O)Oc1ccc2oc(=O)cc(C)c2c1	-3.0%
O=C(CN(Cc1ccccc1)C(=O)c1cccc([N+](=O)[O-])c1)Nc1c(Cl)cc(Cl)cc1Cl	3.7%
Cc1cc(C)nc(-n2nc(C)c3c(C(F)(F)F)cc(=O)[nH]c32)n1	-6.0%
COc1ccc(CCN2CC3=C(C2=O)C(c2ccccc2)NC(=O)N3C)cc1OC (centres undefined)	-9.1%
NC(=O)c1ccc(NCc2ccco2)c([N+](=O)[O-])c1	1.8%
CC1CCCN(C(=O)c2cc(F)c(F)cc2Cl)C1 (centres undefined)	6.31µM*
C(/CCc1ccccc1)=N\n1cnnc1	-6.1%
Cc1nn(-c2ccccc2)c(C)c1/C=N/NC(=O)c1cc(-c2ccc(Br)s2)[nH]n1	?
CCN(CCNC(=O)C1CCCN(S(=O)(=O)c2cnc[nH]2)C1)c1ccccc1 (centres undefined)	-7.9%
FC(F)(F)c1nnc2c(Sc3ccccn3)nc3ccccc3n12	-28.0%
Oc1ccccc1/C=N/Nc1ccnc(SCc2ccccc2)n1	28.2µM*
O=C(O)c1c2c(nc3ccc(S(=O)(=O)N4CCC(C(=O)NC5CCCC5)CC4)cc13)CCCCC2	-15.8%
Cc1ccc(OC(=O)c2ccc(C)c(C)c2)cn1	-3.8%
O=c1oc2c(CN3CCOCC3)c(O)ccc2c2ccccc12	-10.3%
CCOC(=O)C1CCN(Cc2ccc(N(C)C)cc2)CC1	-3.0%
O=C(O)CCCCCNc1nc2ncn(Cc3ccccc3)c2c(=O)[nH]1	-13.2%
O=C(NCc1ccco1)C1(c2ccc(Br)cc2)CCCC1	-16.1%
Cc1ccc(S(=O)(=O)Nc2ccnc3ccccc23)cc1	-8.8%
COCC(=O)N1CCC2(CCCN(c3ccccc3)C2)CC1	-7.3%
Cc1ccc(-c2nc(COC(=O)c3c(C)noc3C)cs2)cc1	-22.5%
S=c1[nH]nc(C2CCCCC2)n1/N=C/c1ccc(Br)s1	5.01µM*
CC1CCCC(NC(=O)COC(=O)c2sc3ccccc3c2Cl)C1C (centres undefined)	-25.7%
Nc1nnc(SCC(=O)NC2CCCCC2)n1-c1ccccc1	-1.3%
CCCCCC1CC(CC(=O)Nc2nncs2)C(=O)O1 (centres undefined)	-17.3%
COc1ccc(N2C(=O)CC(S/C(N)=N/N=C/c3ccnc4ccccc34)C2=O)cc1 (centres undefined)	?
COC(=O)c1sc2ccccc2c1-n1cccc1C(=O)C(=O)Nc1ccc(C)cc1	-12.9%
O=S(=O)(Nc1ccc(N=Nc2ccccc2)cc1)c1ccccc1	?
Additional results
SMILES	HPGD inh
COc1ccc(C(=O)N(Cc2nc(-c3ccc(C)cc3)no2)C(C)C)cc1OC	-7.1%
Cc1ccc(/C=C/C(=O)Nc2sc(C)c(C)c2C(=O)OC(C)C)o1	?
COC(=O)c1ccc(CSc2ccc3nnc(-c4ccccc4)n3n2)o1	?
CCOC(=O)c1c(C)[nH]c(C(=O)COC(=O)c2[nH]c(C)c(C(C)=O)c2C)c1C	-5.8%
CCCCN(CC)CCNC(=O)Cn1cnc2sc(C)c(S(=O)(=O)N3CCOCC3)c2c1=O	-9.6%
Cc1cc(C)c2c(-n3cccc3)c(C(=O)O)sc2n1	-21.4%
Cc1ccccc1C1(CCN2CCCCC2)CCOC(C)(C)C1 (centres undefined)	-3.4%
Cc1ccc2c(c1)NC(=O)C(CC(=O)NCCCN1CCCC1)O2 (centres undefined)	-2.6%
COCCCn1c2nc3ccccc3nc2c2c(=O)n(CC3CCCO3)cnc21 (centres undefined)	?
CCOc1ccc(S(=O)(=O)n2cnc3cc(C)c(C)cc32)cc1	-15.1%
CC1(C)S[C@@H]2[C@H](NC(=O)[C@@H](N)c3ccc(O)cc3)C(=O)N2[C@H]1C(=O)O	-15.2%
Cc1oc2nc(SCC(=O)N3CCCCC3)nc(N)c2c1C	1.41µM*

6 entries from above, ordered by formula weight, largest number first.
SMILES	HPGD inh
COc1ccc(C(=O)N(Cc2nc(-c3ccc(C)cc3)no2)C(C)C)cc1OC	-7.1%
CCOC(=O)c1c(C)[nH]c(C(=O)COC(=O)c2[nH]c(C)c(C(C)=O)c2C)c1C	-5.8%
COC(=O)c1ccc(CSc2ccc3nnc(-c4ccccc4)n3n2)o1	?
CC1(C)S[C@@H]2[C@H](NC(=O)[C@@H](N)c3ccc(O)cc3)C(=O)N2[C@H]1C(=O)O	-15.2%
CCOc1ccc(S(=O)(=O)n2cnc3cc(C)c(C)cc32)cc1	-15.1%
Cc1ccccc1C1(CCN2CCCCC2)CCOC(C)(C)C1 (centres undefined)	-3.4%

Next part
SMILES	HPGD inh
CCOC(=O)C1=C(Cc2ccc(OC)cc2)C(=O)c2ccccc2C1=O	31.6µM*
Cc1nn(Cc2ccccc2Cl)c(Cl)c1C(=O)NCCc1ccccc1	-8.0%
Cc1ccc2nc(-c3cccc(NS(C)(=O)=O)c3)cc(-c3ccccc3)c2c1	-25.2%
COc1ccc(CCCC(=O)O)c(C)c1	-2.3%&-20.4%
NC(=O)c1ccccc1N/C=C/C(=O)c1ccc(Cl)cc1Cl	12.6µM*
CC(=O)Cc1nsc(NC(=O)c2ccc(-c3cccc(C(F)(F)F)c3)o2)n1	-5.1%
CCOC(=O)N1CCC(NC(=O)CN2C(=O)CSc3ncccc32)CC1	-14.7%
CC(NC(=O)c1cccnc1)c1ccc2c(c1)OCO2 (centres undefined)	-5.1%
CCCc1cc(C(N)=O)c(NC(=O)c2ccco2)s1	?
O=C(COc1ccccc1)NCc1ccc2c(c1)OCO2	?
COCCn1c(=NC(C)=O)sc2cc([N+](=O)[O-])ccc21	-24.5%
Cc1ccc2c(c1)C1CN(C)CCC1N2C(=O)Nc1ccc(Cl)cc1 (centres undefined)	-5.9%
COc1ccc(S(=O)(=O)Cc2ccc(C(=O)NC3CC3)o2)cc1	-6.4%
Cc1cc(C(F)(F)F)c2c(C)nn(CCc3nn[nH]n3)c2n1	?
CC(CC(C)C(=O)N1CCOCCN(C(=O)C(C)CC(C)C(=O)O)CCOCC1)C(=O)O (centres undefined)	-1.6%
C=CCn1c(-c2cc(OC)cc(OC)c2)n[nH]c1=S	-28.0%
O=C(NC1CCCCCC1)c1ccc(S(=O)(=O)NCc2ccco2)cc1	-5.3%
CC(C)C(=O)Nc1sc2c(c1C#N)CCCCC2	-13.5%
CCOc1ccc2oc(=O)cc(C)c2c1	?
CCCOc1ccc(Br)cc1/C=N/O	10µM*
CS(=O)(=O)N(CCC(=O)O)Cc1ccccc1	3.4%
CC(C)(C)c1cc(C(=O)NCc2ccco2)ccn1	-8.4%
O=C1CC(N2CCC(O)(c3ccc(Cl)cc3)CC2)C(=O)N1Cc1ccc(N2CCCC2=O)cc1 (centres undefined)	-15.3%
Cc1sc(-n2cccc2)c(C(=O)O)c1C	-15.2%

Part of the list above, as a markdown table.
| structure | HPGD inh |
| --- | --- |
| C=CCn1c(-c2cc(OC)cc(OC)c2)n[nH]c1=S | -28.0% |
| O=C(NC1CCCCCC1)c1ccc(S(=O)(=O)NCc2ccco2)cc1 | -5.3% |
| CC(C)C(=O)Nc1sc2c(c1C#N)CCCCC2 | -13.5% |
| CCOc1ccc2oc(=O)cc(C)c2c1 | ? |
| CCCOc1ccc(Br)cc1/C=N/O | 10µM* |
| CS(=O)(=O)N(CCC(=O)O)Cc1ccccc1 | 3.4% |

Next compounds follow:
SMILES	HPGD inh
CCn1c(/C=C2\C(=O)N(C)c3ccccc32)nc2ccccc2c1=O	1.9%
O=C(CCn1nnc2ccccc21)Nc1nnc(-c2ccccc2F)s1	-18.6%
CCCC(=O)NNC(=O)c1ccoc1C	-6.1%
O=C(c1ccc(Cl)cc1)N1CCC(O)(CSc2ccc(Cl)cc2Cl)CC1	-20.1%
CCOc1ccc(C(Nc2ccc(C)cc2)P2(=O)OCCC(C)O2)cc1 (centres undefined)	-1.2%
O=C(C[n+]1cc(-c2ccccc2)n2c1CCC2)Nc1nc(-c2ccc(F)cc2)cs1	5.0%
O=C1NN(c2ccccc2)C(=O)/C1=C\c1cccc(OC(=O)c2cccs2)c1	2.51µM*
S=C(NCCc1ccccc1)NCC1CCCO1 (centres undefined)	-22.3%
CC1CCCCN1C(=O)Cn1c(=O)n(C2CCCCC2)c(=O)c2ccccc21 (centres undefined)	-2.6%
O=C(Cc1ccc2c(c1)OCCO2)c1c(O)cc(O)cc1O	20µM*
CC1(C)CC(=O)C(C=NCCN2CCN(CCCCS(=O)(=O)O)CC2)=C(O)C1	-5.3%
Cc1csc(-c2nc3ccccc3n2C)n1	?
Cc1cc(C)nc(N2CCC(C(=O)NCc3ccco3)CC2)n1	?
COc1c(C)cc(Br)cc1C(=O)Nc1cccc(-c2nc3ncccc3o2)c1	?
C=CCn1c(Cc2cccc3ccccc23)n[nH]c1=S	28.2µM*
Cc1cc(NC(=O)c2cc(C(C)C)on2)no1	1.5%
Cc1ccccc1-c1nn[nH]n1	-5.1%
Cc1ccccc1S(=O)(=O)Cc1ccc(C(=O)O)o1	-7.9%
C=CCN1C(=O)C(Cc2ccc(OC)cc2)S/C1=N\N=C\c1cccs1 (centres undefined)	-12.3%
O=C(c1ccccc1)c1ccccc1	-5.3%&-16.1%
O=C(CSc1nnnn1-c1ccccc1)Nc1ncc2c(n1)CC(c1ccco1)CC2=O (centres undefined)	-12.3%
O=C(N/N=C/c1ccccc1OCc1ccccc1)c1cccnc1	-12.1%
COc1ccc(-n2c(COc3cccc4ccccc34)nnc2SCC(=O)NCc2ccco2)cc1	-8.7%
Cc1nc(NCc2ccc3c(c2)OCO3)c2nnn(Cc3ccccc3)c2n1	-9.4%
Cc1nn(-c2ccccc2)c(Cl)c1/C=C(\C#N)C(=O)NC(C)C	-25.8%
O=C(Nc1ncccn1)C1CCCN1S(=O)(=O)c1ccc(Cl)c(Cl)c1 (centres undefined)	-2.7%
C/C(=N\NC(=O)c1cccc(Cl)c1)C1C(=O)c2ccccc2C1=O	?
CCOC(=O)c1cc(NC(=O)OC)c(C)nc1C	0.9%
O=C(Nc1ccc2nc(-c3ccco3)[nH]c2c1)c1cccs1	?
CC(C)(C)OC(=O)N[C@@H](Cc1ccccc1)C(=O)N1CCC(C(=O)O)CC1	-10.6%
COc1cc2sc(C)nc2c2sccc12	-15.1%
c1ccc(Oc2nc(NCc3ccco3)nc(NCc3ccco3)n2)cc1	-17.4%
COc1ccc(N2C(=O)NC3CC2(C)Oc2ccc(Br)cc23)cc1OC (centres undefined)	-13.7%
CCn1c(CNC(=O)c2ccco2)nnc1SCC(=O)Nc1cc(C(F)(F)F)ccc1Cl	-5.7%

From PubChem
